# Arbovirus anti: arbovirus infection inhibition; arbovirus infection cell-based antiviral screen; inhibition, % at 10 µM; actives 0.37% (n = 200,000); AID 1251;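 active means inhibition from about 30%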;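 further: bluetongue infection of BSR cells; cell survival read as ATP light after 72 h; 0% = infected wells without compound and 100% = uninfected wells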
# RecA intein inh: Mtb RecA intein splicing inhibition; cell-free RecA intein splicing, fluorescence; inhibition, %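 (about 9 µM by stock and volumes)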; AID 2221; actives 0.75% (n = 290,000); in the data active means inhibition above about 30%; inconclusive means no clear call, values can overlap the other calls;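 further: 0% = vehicle wells and 100% = reference inhibitor control wells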
# Target sequence (P9WHJ3 whole entry, looked up): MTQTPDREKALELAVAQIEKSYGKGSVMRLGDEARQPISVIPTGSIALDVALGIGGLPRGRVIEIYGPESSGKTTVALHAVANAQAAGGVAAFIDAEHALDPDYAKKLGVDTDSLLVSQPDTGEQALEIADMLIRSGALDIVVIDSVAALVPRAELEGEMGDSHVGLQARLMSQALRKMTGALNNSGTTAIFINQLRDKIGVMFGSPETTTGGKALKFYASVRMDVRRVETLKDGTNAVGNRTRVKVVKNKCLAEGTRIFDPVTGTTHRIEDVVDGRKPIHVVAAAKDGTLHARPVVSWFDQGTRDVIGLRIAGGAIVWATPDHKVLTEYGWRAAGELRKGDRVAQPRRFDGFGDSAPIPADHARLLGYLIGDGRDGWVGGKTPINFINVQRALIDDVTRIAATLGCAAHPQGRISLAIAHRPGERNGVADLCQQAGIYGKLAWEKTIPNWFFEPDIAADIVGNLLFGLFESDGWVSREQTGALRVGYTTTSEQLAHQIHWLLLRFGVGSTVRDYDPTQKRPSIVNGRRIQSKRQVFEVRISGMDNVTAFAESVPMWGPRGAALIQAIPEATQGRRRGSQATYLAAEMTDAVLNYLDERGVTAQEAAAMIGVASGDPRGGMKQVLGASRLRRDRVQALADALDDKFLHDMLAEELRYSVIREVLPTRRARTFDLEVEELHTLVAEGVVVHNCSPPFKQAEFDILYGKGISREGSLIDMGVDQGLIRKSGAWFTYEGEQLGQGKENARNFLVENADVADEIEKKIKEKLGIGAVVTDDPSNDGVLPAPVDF
# Mtb betalactam: beta-lactam sensitization of Mtb H37Rv; M. tuberculosis H37Rv growth with meropenem, percent inhibition; hits of this screen are not shown here; inhibition, % at 25 µM; actives 0.27% (n = 330,000); AID 434955;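 active means about 74% or more and at least 40 points above the plate without the antibiotic, then above 30% in a dose series; inconclusive means first-round hits that could not be retested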;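 further: growth measured after seven days incubation then overnight dye step; 0% = bacteria only wells and 100% = bacteria with antibiotic; twin plates without the antibiotic show which effects depend on it; some results filed as inactive read as strong as hits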
# Mtb H37Rv: M. tuberculosis H37Rv growth inhibitors, H37Rv strain (AID 1626). M. tuberculosis H37Rv growth inhibition; higher % means a stronger effect. one-dose inhibition, % at 10 µM; IC50 in µM for titrated hits. actives 0.95% (n = 220,000);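 active means confirmed in a dose series; inconclusive means inhibition above 80% but not taken into the dose series; inactive means below 80% or under 30% at every dose of the series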;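 further: bacteria incubated seven days before Alamar blue readout; 0% = bacteria only wells and 100% = bacteria with antibiotic wells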
# YopH PTP inh: inhibitors of Yersinia enterocolitica YopH tyrosine phosphatase; fluorescence Ex485/Em525; inhibition, %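 (about 10 µM by stock and volumes)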; actives 0.16% (n = 140,000); AID 898;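 active means inhibition of 50% or more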;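 further: controls were vehicle for no effect and minimum signal wells for full effect; inactives centre near -20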
# Arbovirus anti repeat: second read-out of Arbovirus anti, no call of its own (marks repeat the call); inhibition, %; measured here: 10K subset replicate screen; many hits read low in the repeat;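 first of two repeat runs on a subset; 0% = infected and 100% = uninfected wells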
# * hit, by the source's call; u = inconclusive; x = not tested or not shown.
# The first 4 entries as a preview:
SMILES,Arbovirus anti,RecA intein inh,Mtb betalactam,Mtb H37Rv,YopH PTP inh,others
COCCNC(=O)CCc1c(C)nc2nc(-c3cc(OC)cc(OC)c3)nn2c1C,2,1.0,0,0%,x,
CCC(=O)N1c2ccccc2NC2=C(C(=O)CCC2)C1c1cccnc1 (configuration not stated),-3,0.1,-9,-1%,-23,
c1c(C2CCCCC2)n[nH]c1CN1CCCCC1,2,x,7,-5%,-21,
O=S(=O)(NCCc1ccccc1)c1ccccc1,1,3.2,8,14%,-9,

# Main list, from the first entry:
SMILES,Arbovirus anti,RecA intein inh,Mtb betalactam,Mtb H37Rv,YopH PTP inh,others
COCCNC(=O)CCc1c(C)nc2nc(-c3cc(OC)cc(OC)c3)nn2c1C,2,1.0,0,0%,x,
CCC(=O)N1c2ccccc2NC2=C(C(=O)CCC2)C1c1cccnc1 (configuration not stated),-3,0.1,-9,-1%,-23,
c1c(C2CCCCC2)n[nH]c1CN1CCCCC1,2,x,7,-5%,-21,
O=S(=O)(NCCc1ccccc1)c1ccccc1,1,3.2,8,14%,-9,
O=C(Nc1c(F)cc(F)cc1Br)C1CCCO1 (configuration not stated),-1,-1.2,-2,-3%,1,
O=C(CN(c1cccc([N+](=O)[O-])c1)S(=O)(=O)c1ccccc1)N1CCCCC1,x,0.2,-1,x,x,
C/C(=N/NC(=O)CNC(=O)C1COc2ccccc2O1)c1cccc(O)c1 (configuration not stated),16,-3.5,-4,6%,x,
Cn1c(O)c(C(=NCCc2c[nH]c3ccccc23)c2ccccc2)c(=O)n(C)c1=O,3,x,2,8%,x,
Cc1cccc(CCNS(=O)(=O)c2cc3c(cc2C)NC(=O)CO3)c1,x,-0.6,-5,x,x,
Cc1cc(SCC(=O)c2cc(C)n(C)c2C)nc2ccccc12,-9,-2.5,8,8%,-10,
OCCC1CN(Cc2ccccc2-c2ccco2)CCN1Cc1ccsc1 (configuration not stated),1,0.3,-5,6%,x,
COC(=O)Nc1sc2nc(C)cc(C)c2c1-n1cccc1,14,-7.7,7,-3%,-7,
O=C(NCCc1c[nH]c2ccccc12)c1ccc(-n2cnnn2)cc1,2,-1.4,1,8%,-29,
Cc1c(Br)c([N+](=O)[O-])nn1CCCC(=O)Nc1sc2c(c1C#N)CCC2,-2,2.2,-3,9%,-4,
COC(=O)C1=C(C)N=C2SC(C)C(=O)N2C1c1cccs1 (configuration not stated),3,1.3,-7,-6%,-44,
COc1cc2sc(C)nc2c2ccccc12,x,-2.5,6,x,x,
Cc1ccc(CN2CCN(/N=C/c3ccco3)CC2)c(C)c1,-9,-0.2,-5,-7%,-19,
CCCCCCCCn1c(=O)c(C(=O)OC)c(N)c2ccccc21,x,-1.5,1,0%,x,
O=C(c1cc2ncc(Br)cn2n1)N1CCN(C(=O)c2ccco2)CC1,2,-0.7,-2,-15%,-29,
O=C(NNC(=S)NC(=O)c1ccccc1[N+](=O)[O-])c1ccccc1O,0,22,1,-2%,x,
CC(Oc1ccc(Cl)cc1Cl)C(=O)N/N=C1\CCCc2ccccc21 (configuration not stated),-11,-1.0,11,-8%,-12,
CC1CCN(C(=S)SCc2nc(N)nc(Nc3ccccc3)n2)CC1,x,4.9,7,3%,x,
CC(=O)Nc1ccc(NC(=O)C(C)OC(=O)CN(C)S(=O)(=O)c2ccc(Cl)cc2)cc1 (configuration not stated),-1,x,0,9%,-19,
Cn1nc(-c2ccccc2)cc1NC(=O)C1CCCCC1,x,-0.1,0,-1%,x,
Nc1ccc(O)c(C(=O)O)c1,x,-25,-6,-9%,x,
CCOC(=O)C1CN(S(=O)(=O)c2ccccc2)CCN1S(=O)(=O)c1ccccc1 (configuration not stated),6,1.1,0,-2%,-26,
CN(CCC1CCOCC1)C(=O)CC1C(=O)NCCN1CC1CCCCC1 (configuration not stated),7,-1.3,-7,-7%,x,
CCOP(=O)(OCC)C(Nc1ccc(C)cc1)c1ccco1 (configuration not stated),1,3.0,-3,8%,x,
O=C(CN1C(=O)COc2ccccc21)N1CCCc2ccccc21,3,x,u,-4%,-11,
Cc1ccc2[nH]c(=O)c(CN(CC3COCCO3)C(=O)Nc3ccccc3F)cc2c1 (configuration not stated),-3,-1.4,-1,-2%,x,
Cc1ccc(S(C)(=O)=O)cc1S(=O)(=O)Nc1cccc(Cl)c1,10,-0.7,-3,-2%,-29,
Cc1cc(C)n2nc(CC(=O)NNC(=O)COc3cccc(C)c3C)nc2n1,x,-2.0,-12,x,x,
COc1ccc(C2Nc3ccccc3C(=O)N2C2CCCCC2)cc1 (configuration not stated),-4,3.4,0,-11%,x,
CC(=O)Nc1ccc(NC(=O)C(C)OC(=O)CSc2ccc(Br)cc2C)cc1 (configuration not stated),x,0.1,-4,x,x,
CCOC(=O)c1c(C)c(/C=N/Nc2ccccc2)n(C)c1C,-21,x,x,u,x,
COC(=O)c1c(C)nn(-c2ccccc2)c1N,3,-0.3,-1,x,-16,Arbovirus anti repeat=-1
O=C(COc1ccc2ccccc2c1)NCCn1ccc2ccccc21,18,8.8,2,9%,-3,
c1ccc(C2=NN(c3ccccc3)CC2)cc1,x,-1.0,-5,-9%,x,
O=C(O)C[C@H]1c2cc(F)ccc2S(=O)(=O)N1Cc1ccccc1,x,-2.5,-4,-7%,x,
CC(C)CC(NC(=O)c1cccs1)c1nnc(SCc2ccc(Cl)c(Cl)c2)n1C (configuration not stated),-10,10,2,0%,-24,
COc1ccc(-c2[nH]nc3c2C(c2ccncc2)C(C#N)=C(N)O3)cc1 (configuration not stated),1,70*,-2,-3%,-13,
Oc1ccc2ccccc2c1C1Nc2cccc3cccc(c23)N1,-20,-2.0,96,u,6,
CCN(CC)c1ccc(-c2sc(Nc3ccccc3)n[n+]2-c2ccc(F)cc2)cc1,x,-41,100,x,x,
CC1=C(C(=O)OCC2CCCO2)C(c2ccc(C)o2)C2=C(CC(c3ccc(F)cc3)CC2=O)N1 (configuration not stated),-23,x,96,68%,31,
Cc1nccn1S(=O)(=O)c1ccc(Br)cc1Br,5,x,10,3%,-28,
CC(=O)c1cccc(NC(=O)COC(=O)COc2ccccc2C)c1,4,0.2,-11,4%,x,
COc1ccc(CCNC(=O)COc2ccc(S(=O)(=O)N3CCOCC3)cc2C)cc1,x,0.2,7,x,x,
Cc1cc(C(=O)CS(=O)(=O)c2ccccc2)cc(C)c1O,x,2.7,-5,x,x,
CSc1nc(NC(C)(C)C)nc(N2CCOCC2)n1,-1,0.3,-3,7%,5,
Nc1nnc(-c2cn(-c3ccccc3)nc2-c2ccccc2)o1,-4,1.9,12,9%,-5,
Cn1c(N2CCCCC2)cc(=O)n(C)c1=O,2,0.1,1,-1%,1,
COc1ccc(-c2nn(C)c(=O)c3ccccc23)cc1NC(=O)Cn1nc(C)c2ccccc2c1=O,-11,-1.9,17,-7%,-10,
O=S(=O)(Cc1cc(Cl)nc(-c2cccnc2)n1)c1ccccc1,x,1.4,u,x,x,
O=C(COC(=O)CCNS(=O)(=O)c1ccc2c(c1)OCCO2)NC1CCCc2ccccc21 (configuration not stated),7,2.1,-6,-2%,-41,
COc1ccc(/C=N/Nc2nc(C)cc(-c3ccccc3)n2)cc1OC,x,-5.3,86,x,x,
CC(=O)N1CCSc2ccc(S(=O)(=O)NCCc3cccc(C)c3)cc21,x,-0.2,-6,x,x,
CCOC(=O)c1ccc(Nc2cc(C)nc(N3CCOCC3)n2)cc1,7,x,89,4%,-49,
CCCCC(=O)NC(=S)NNS(=O)(=O)c1ccccc1,-3,-8.5,4,5%,-26,
O=C(CCN1C(=O)/C(=C/c2ccc(F)cc2)SC1=S)NC1C=CS(=O)(=O)C1 (configuration not stated),x,2.3,3,x,x,
CC(C)CN(CCOc1cccc(N2C(=O)C3=C(CCCC3)C2=O)c1)CC(C)C,-4,0.3,2,4%,-24,

# Reprinted at random: 3 entries already listed.
SMILES,Arbovirus anti,RecA intein inh,Mtb betalactam,Mtb H37Rv,YopH PTP inh,others
O=C(COC(=O)CCNS(=O)(=O)c1ccc2c(c1)OCCO2)NC1CCCc2ccccc21 (configuration not stated),7,2.1,-6,-2%,-41,
CC(=O)N1CCSc2ccc(S(=O)(=O)NCCc3cccc(C)c3)cc21,x,-0.2,-6,x,x,
Cc1cc(C(=O)CS(=O)(=O)c2ccccc2)cc(C)c1O,x,2.7,-5,x,x,

# Further records
SMILES,Arbovirus anti,RecA intein inh,Mtb betalactam,Mtb H37Rv,YopH PTP inh,others
O=C(COC(=O)c1ccccn1)Nc1cccc(Cl)c1Cl,1,-0.7,-3,x,-29,
Cc1ccc(S(=O)(=O)N2CCN(CC(=O)N/N=C\c3ccc(O)c(O)c3)CC2)cc1,x,-8.5,-2,-5%,x,
COc1cc(C(=O)OCC(=O)NCC2CCCCC2)ccc1OCC(C)C,x,-0.3,4,x,x,
O=[N+]([O-])c1cccc(-c2ccc(/C=N/NC(=S)Nc3ccccc3)o2)c1,-3,-0.1,77,0%,-22,
CC(=O)c1cccc(NC(=O)c2ccc(C)c(S(=O)(=O)N3CCOCC3)c2)c1,x,0.8,-3,x,x,
O=C1CCc2cc(S(=O)(=O)Nc3cccc(F)c3)cc3c2N1CC3,x,-1.6,-12,x,x,
CC(C)c1cc(C(=O)N/N=C/c2ccoc2)cs1,x,2.1,-6,x,x,
CCOc1cc(S(=O)(=O)NCc2cccs2)ccc1Cl,-4,3.8,92,-3%,-14,
O=[N+]([O-])c1cccc(-c2nnc(-c3ccccc3F)o2)c1,x,-0.5,-2,x,x,
COc1cccc(OC(C)c2ccnc3nc(/N=C/N(C)C)nn23)c1 (configuration not stated),-4,x,-8,4%,-37,
c1ccc(CCn2nnnc2CN2CCCc3ccccc32)cc1,-2,-1.5,-5,8%,-28,
Cc1ccc2c(c1)N(CC(=O)N1CCN(c3ccccc3)CC1)C(=O)C(C)O2 (configuration not stated),x,1.2,0,x,x,
CCOC(=O)COc1ccc(S(=O)(=O)N2CCN(C(=O)OCC)CC2)cc1,-5,3.7,1,-10%,1,
CCOc1ccc2[nH]c(=O)c(CN(Cc3nnnn3Cc3ccco3)C3CCCCC3)cc2c1,-11,1.0,4,8%,-42,
N#Cc1c(N)nc(Sc2ccc(Cl)cc2)c(C#N)c1-c1ccccc1Cl,x,1.6,1,-3%,x,
CCCCCOC(=O)CSc1nnc(-c2ccccc2)c(=O)[nH]1,17,-1.1,3,4%,-43,
COCCN=c1scc(-c2cccs2)n1/N=C(\C)c1ccco1,10,5.5,-7,-1%,x,
O=C(NCCc1ccccn1)c1cc(-c2ccc(Cl)c(Cl)c2Cl)nc2ccccc12,-9,2.2,8,8%,-6,
CC(C)OC(=O)c1ccc(NC(=O)c2cncc(Br)c2)cc1,1,-0.3,56,>100µM*,x,
Cc1cc(Cl)ccc1OCC(=O)N(Cc1cccs1)C1CCS(=O)(=O)C1 (configuration not stated),x,2.2,-8,x,x,
O=C(N/N=C/c1ccccn1)c1ccc([N+](=O)[O-])cc1Cl,x,-1.3,-3,x,x,
O=C1CCC(/C=C/c2ccccc2)=NN1,1,1.1,-6,-1%,x,
Cc1ccc(NC(=O)CNC(=O)CC23CC4CC(CC(C4)C2)C3)c(O)c1,x,1.5,-2,x,x,
CCOc1ccc(N(CC(=O)Nc2cccnc2)S(=O)(=O)c2ccc(C)cc2)cc1,x,2.9,-7,x,x,
CCN(CC(=O)c1c(N)n(C)c(=O)n(C)c1=O)c1cccc2ccccc12,-7,0.9,-3,-4%,-24,
S=C(NCc1ccc(Cl)cc1)Nc1ccncc1,x,3.1,-5,x,x,
CCn1c(C)nnc1SCC(=O)NC1CCCCCC1,x,-0.3,-9,x,x,
COC(=O)C1CCN(C(=O)CSc2nnc(-c3ccccc3)o2)CC1,x,-1.1,3,x,x,
O=C(CSc1nccn1-c1ccc(Cl)cc1)N1CCCc2ccccc21,21,5.1,-2,1%,-15,
CN(C)CCn1c(SCc2ccccc2C#N)nc2c(sc3ccccc32)c1=O,x,-0.5,9,x,x,
Cc1ccc(S(=O)(=O)N(C)c2ccc(OCC(=O)Nc3nnc(C4CC4)s3)cc2)cc1,15,3.4,x,-1%,x,
C/C(=N\Nc1ccc2nncn2n1)c1ccco1,x,-0.3,-1,-6%,x,
Nc1nc(NC(=O)c2ccco2)nn1-c1ccccc1,1,-0.3,-15,-7%,-16,Arbovirus anti repeat=-2
CCOC(=O)Nc1ccc2c(c1)N(C(=O)CCN1CCOCC1)c1ccccc1S2=O (configuration not stated),-9,-1.7,16,-2%,-41,
COc1cc(Cn2nnc3ccccc32)ccc1O,x,-3.3,0,x,x,
Nc1nc(SCC(=O)Nc2c(Br)cc([N+](=O)[O-])cc2Br)n[nH]1,-12,0.7,3,-9%,-38,
COc1cc(C2NC(=O)C(C#N)=C(S)N2c2ccc(C)cc2)ccc1OC(C)C (configuration not stated),-2,0.1,-15,5%,-28,

# Assay outcomes from PubChem.

# Only part of the results is shown, so the mix of outcomes need not match the whole.
